TAR Tat displ – HIV-1 TAR-Tat binding disruption. HIV-1 TAR RNA, Tat peptide displacement FRET; hits give high values. z-score (concentration not given with the values). hit rate 0.6% among 100,000. AID 1259389;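 note: score is relative to mean and SD of negative controls; some compounds called inactive have numbers as strong as hits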
CDC25B-CDK2 inh – human CDC25B-CDK2/CyclinA binding inhibition; AID 1259370; z-score (concentration not given with the values); HTRF CDC25B-CDK2/CyclinA binding, anti-His/anti-Flag; hits give high values; hit rate 0.72% among 94,000; P30305+P24941;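 note: score is relative to mean and SD of negative controls; strong numbers were not always called active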
Active calls of the source: *; · = not tested or not shown; & = joins results of further samples.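 Rule for the calls: active = z-score from 3 up in half or more of its runs; inactive = the rest.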

SMILES	CDC25B-CDK2 inh	TAR Tat displ
Cc1ccc2nc3sc(C(=O)N(C)Cc4ccco4)cc3cc2c1	·	-0.02
COC(=O)c1sc(=S)n(-c2ccccc2OC)c1N	·	0.51
CCC(=O)N1c2ccc(S(=O)(=O)N3CCCCC3)cc2CC1C(=O)NC1CC1 (centres undefined)	·	0.93
Cc1[nH]c2ccccc2c(=O)c1Cc1c(C)[nH]c2ccccc2c1=O	1.39	-0.38
O=C1C(=O)N(CCCn2ccnc2)C(c2cccc(Br)c2)/C1=C(\O)c1ccccc1 (centres undefined)	-1.61	1.29
Cc1ccc2occ(CC(=O)Nc3nnc(C(C)C)s3)c2c1	-1.2	-0.99
CN(C)CCCNc1nc(N)c([N+](=O)[O-])c(N2CCN(C)CC2)n1	·	-0.33
O=C1CCCC2=C1C(c1ccccc1F)n1ncnc1N2 (centres undefined)	-1.52	·
CCCCOc1ccccc1-c1cc(-c2nc(-c3ccncc3)no2)[nH]n1	·	1.09
Cc1sc2c(c1C)-c1nc(SCC(=O)C(C)(C)C)ncc1S(=O)(=O)N2C	-1.43	·
COc1cc2c(=O)oc(-c3cccc(C(F)(F)F)c3)nc2c(OC)c1OC	-1.81	·
Cc1cc(-c2ccc(C)c(S(=O)(=O)NCc3ccc(N(C)C)cc3)c2)on1	·	-0.31
Cc1nn(C(C)C(=O)NCCCN2CCN(C)CC2)c(=O)c2c1sc1ccccc12 (centres undefined)	-1.97	-0.47
COc1cc(-c2oc3cc(O)cc(O)c3c(=O)c2O)ccc1O	·	1.75&1.41
Cc1ccc(S(=O)(=O)c2nc(-c3ccccc3)oc2N2CCOCC2)cc1	0.98	1.26
COc1ccc(-c2nc(NC(C)C)c3ccccc3n2)cc1	·	1.17
Cc1nn(C(C)C(=O)O)c(=O)c2c(C)n(-c3ccccc3)nc12 (centres undefined)	-0.84	1.01
CC1CCN(c2ncnc3onc(-c4cccc(Cl)c4)c23)CC1	·	1.12
CCc1cccc(C)c1N(C(C)=O)C1=NCCC(=O)S1	-0.35	·
CCCC1CCC(C2CCC(c3noc(-c4ccc(OC)c(OC)c4)n3)CC2)CC1 (centres undefined)	-4.01	·
O=C1Nc2cc(C(=O)N3CCN(Cc4ccc5c(c4)OCO5)CC3)ccc2N2CCCCC12 (centres undefined)	·	-0.11
O=C(NCCN1CCOCC1)c1ccc(CN2CC(=O)N3CSCC3C2=O)cc1 (centres undefined)	·	0.64
COc1ccc(Nc2nc(N3CCN(CCO)CC3)nc3c2cnn3C)cc1	·	1.19
CCCOC(=O)C1=C(C)NC2=C(C(=O)C(C(=O)OC)C(C)C2)C1c1ccc(F)c(Br)c1 (centres undefined)	-0.11	1.67
COc1cc2c(O)c3c(c(-c4ccc5c(c4)OCO5)c2cc1OC)C(=O)OC3	-1.46	2.17
COc1cc2ccccc2cc1C(=O)Nc1cc(-c2nc3cc(C)ccc3o2)ccc1C	-4.01	·
CCCNC(=O)CSc1cn(CC(=O)N2CC(C)OC(C)C2)c2ccccc12 (centres undefined)	·	-0.21
CCOC(=O)c1c(NC(=O)N2CC(C)Oc3ccccc32)sc2c1CCCC2 (centres undefined)	·	0.95
C=C(C)CSc1nnc2nc(C)cc(C)n12	0.72	1.2
Cc1ccc2c(c1)C(O)(C(C)C(=O)c1ccccc1)C(=O)N2 (centres undefined)	0.28	·
COc1cccc(/C=C/c2nc(C#N)c(NC3CCCCC3)o2)c1	0.96	0.21
c1ccc(CN2CCN(CCN3CCn4c3nc3ccccc34)CC2)cc1	-1.23	·
Cc1cc2nnc(SCC(=O)O)n2c2ccccc12	-2.12	0.01
COc1cc(Cl)c(NS(=O)(=O)c2ccc(-c3cnc(C)o3)cc2)c(OC)c1	·	1.13
Cc1cc(C)c2c(c1)c(C)cc1nnc(SCC(=O)Nc3ccc(S(=O)(=O)N(C)C)cc3)n12	-1.56	1.97
COc1cccc(C2C3=C(NCCN=C3c3ccccc3)C(=O)N2c2ccccc2)c1 (centres undefined)	-0.82	-0.4
O=C(NCc1ccc2c(c1)OCO2)c1nnc(-c2ccc3c(c2)OCO3)o1	-1.7	-0.06
CC1(c2ccccc2)CC(c2ccccc2)=C(C#N)C(=O)N1 (centres undefined)	1.15	·
O=C(Nc1ccc(N2CCOCC2)cc1)C1=Cc2cc(Cl)ccc2OC=C1	-1.35	1.2
Cc1[nH]c(C#N)c(C)c1C1C(C#N)=C(N)OC2=C1C(=O)CC(C)(C)C2 (centres undefined)	-1.14	·
CCCCn1c(=O)c(C#N)cc2c(=O)n3cc(C)ccc3nc21	2.73	-6.09
Cc1cc(C)c2c(=O)cc(C(=O)Nc3sc4c(c3C#N)CCCC4)oc2c1	-2.42	2.2
CC1CC(C)CN(S(=O)(=O)c2ccc3[nH]c(=O)sc3c2)C1 (centres undefined)	-1.9	·
CN(C)c1ccc(C(CNS(=O)(=O)c2ccc(Cl)cc2)N(C)C)cc1 (centres undefined)	·	-0.99
Cc1c(NC(=O)C2CCCN(c3nc4cccnc4s3)C2)c(=O)n(-c2ccccc2)n1C (centres undefined)	·	0.02
Clc1cccc(-c2nnn3c2nc(NCC2CCCO2)c2ccccc23)c1 (centres undefined)	-0.84	0.26
CCNc1nc(NC(C)C)nc(NS(=O)(=O)c2ccc(C)cc2)n1	-1.9	-0.79
COc1cc(C2C3=C(CCCC3=O)Nc3[nH]n(-c4ccccc4)c(=O)c32)ccc1O (centres undefined)	-3.15	-0.94

A draw from above in order of molecular weight, ascending:
SMILES	CDC25B-CDK2 inh	TAR Tat displ
CC1(c2ccccc2)CC(c2ccccc2)=C(C#N)C(=O)N1 (centres undefined)	1.15	·
Cc1[nH]c(C#N)c(C)c1C1C(C#N)=C(N)OC2=C1C(=O)CC(C)(C)C2 (centres undefined)	-1.14	·
CCNc1nc(NC(C)C)nc(NS(=O)(=O)c2ccc(C)cc2)n1	-1.9	-0.79
Cc1c(NC(=O)C2CCCN(c3nc4cccnc4s3)C2)c(=O)n(-c2ccccc2)n1C (centres undefined)	·	0.02

(next part)
SMILES	CDC25B-CDK2 inh	TAR Tat displ
CCc1nnc(SCC(=O)N(CC)Cc2ccccc2)c2cc3occc3n12	·	-4.13
Cc1cc2nc(CSc3ccccc3NC(=O)C(C)C)cc(=O)n2o1	·	0.65
Cc1ccc(S(=O)(=O)n2nc(-c3ccc(Cl)cc3)nc2NCc2ccco2)cc1	0.32	0.15
COc1ccc(N(C)S(=O)(=O)c2ccc3c(c2)n(C)c(=O)c(=O)n3C)cc1	-1.34	·
COc1cccc(NC(=O)C2C3C=CC4(O3)C2C(=O)N(C(C)(C)C)C4C(=O)NC2CCCCC2C)c1 (centres undefined)	0.41	-0.47
CCCCSc1ncnc2c1sc1nc3c(cc12)COC(C)(C)C3	-0.57	-0.39
CCCc1nc2nc(C)c(NS(=O)(=O)c3ccc(F)c(C)c3)c(=O)n2[nH]1	0.26	0.61
Cc1c(C(=O)NCCc2ccsc2)sc2nc3n(c(=O)c12)CCCC3	·	2.6
CCn1cc(NC(=O)NCC2COc3ccccc3O2)c(=O)c2ccc(C)nc21 (centres undefined)	-0.3	-0.4
c1ccc(CCc2nc(-c3ccc(-n4cccc4)cc3)no2)cc1	-0.72	-1.03
O=C(Cc1csc2nc(-c3ccc(F)cc3)cn12)N1CCOCC1	·	0.91
Cc1oc2c(CN3CCCC3)c(O)ccc2c(=O)c1-c1nc2ccccc2s1	-0.73	0.95
O=c1[nH]nc(-c2ccccc2)c2c1Nc1nnnn1C2c1ccc(F)cc1 (centres undefined)	-1.46	0.27
Cc1ccc(C(=O)COC(=O)c2cccc(N3C(=O)c4c(C)nc5ccccc5c4C3=O)c2)cc1	-1.15	-0.44
CCOC(=O)c1cnc2nc(-c3ccc(Cl)cc3)[nH]n2c1=O	1.26	1.73
O=C(NC(=S)NC12CC3CC(CC(C3)C1)C2)c1ccccc1	-0.17	·
CCc1c(C)nc2nncn2c1Nc1ccc(C)c(F)c1	-0.65	-0.52
Cc1ccc(Nc2nc(C)nc(N)c2S(=O)(=O)c2ccccc2)cc1	0.8	1.43
C=CCSc1nc2c(c(=O)[nH]1)C(c1cccc(C)c1)C(C(=O)OC(C)C)=C(C)N2 (centres undefined)	-0.32	0.6
CC1=C(c2ccc(Cl)cc2)S(=O)(=O)N=C1Nc1ccccc1F	-2.02	-1.95
COc1ccccc1C(=O)CN1C=NS(=O)(=O)c2ccccc21	·	0.34
COCCCNC(=S)NNC(=O)c1ccc(C(C)(C)C)cc1	-0.5	·
O=C(O)C1C2C=CC3(CN(Cc4ccccn4)C(=O)C13)O2 (centres undefined)	1.1	2.21
O=C1CCCc2nc(N3CCN(c4ccc(F)cc4)CC3)ncc21	-3.8	2.62
O=C(c1ccc(Cl)cc1)N(Cc1ccco1)C1CCS(=O)(=O)C1 (centres undefined)	-1.43	1.74
CN(C1CCCCC1)S(=O)(=O)c1cccs1	0.05	·
O=C(CCCn1c2ccccc2c2cn[nH]c(=O)c21)NCCc1ccccc1	-1.75	-1.03
CC1(C)CC(=O)C=C(SCc2ccc([N+](=O)[O-])cc2)S1	0.54	·
O=S(=O)(Nc1ccc(CN2CCCCC2)cc1)c1ccc(-n2cccn2)cc1	·	0.64
CCS(=O)(=O)c1nc(S(=O)(=O)c2ccc(Cl)cc2)c(N2CCC(C(N)=O)CC2)s1	-2.28	0.55
CCc1nn2c(=O)cc(COc3ccc(NC(=O)C(CC)CC)cc3)nc2s1	1.15	0.46
CCC(Sc1nc2ncccc2[nH]1)C(=O)Nc1ccc(F)cc1 (centres undefined)	·	0.18
CCOc1cc(-c2noc(CCCC(N)=O)n2)cc(Br)c1OC	-0.14	2.07
CN(CCCNC(=O)c1cnn(-c2ccc(F)cc2)c1-n1cccc1)C1CCCCC1	·	1.12
CC(C)Cc1cc2c(s1)SCC(=O)N2CC(=O)NCCN1CCCC1	·	1.02
CCCCOC(=O)CCCN1C(=O)S/C(=C/c2ccc(OC)cc2)C1=S	-2.16	0.2
Cc1cc(C)nc(N2CCN(c3ncnc4sc5c(c34)CCCC5)CC2)n1	-1	0.84
CC(=O)N1c2ccc(S(=O)(=O)N3CCCC3C(=O)Nc3nc(C)cs3)cc2CC1C (centres undefined)	·	0.7
CCOCc1cc(CN2CCN(c3cccc(Cl)c3)CC2)c(O)c2ncccc12	-2.01	0.27
COc1ccc(-c2cccc(NS(=O)(=O)c3ccccc3Cl)c2)nn1	·	1.08
CCN1CCN(c2oc(-c3ccccc3)nc2C#N)CC1	-1.2	0.01
Cc1nc2c(c(SCC(=O)Nc3ccc(S(=O)(=O)N(C)C)cc3)n1)CCC2	0.78	0.48
CN(C(=O)Cn1ncc2c1-c1ccccc1OC2)c1ccc(F)cc1	-0.37	1.11
COC(=O)C1=C(C)NC2=C(C(=O)c3ccccc32)C1c1ccc2c(c1)OCO2 (centres undefined)	1.34	0.89
COCCNc1nc(Nc2ccccc2)c2cnn(C)c2n1	·	0.44
CC1(C)C[C@@H]2C(=O)CC[C@H]3O[C@]3(C)CC[C@H]21	·	1.79
Cc1nn(C)c(C)c1CNC(=O)Nc1cccc(Br)c1	·	1.25
COc1ccc(-n2c(SCC(N)=O)nc3c(oc4ccccc43)c2=O)cc1	-4.02	5.68

Record cards, as listed above:
Cc1cc(-c2ccc(C)c(S(=O)(=O)NCc3ccc(N(C)C)cc3)c2)on1 is listed as CDC25B-CDK2 inh = ·; TAR Tat displ = -0.31
Cc1ccc(Nc2nc(C)nc(N)c2S(=O)(=O)c2ccccc2)cc1 is listed as CDC25B-CDK2 inh = 0.8; TAR Tat displ = 1.43

Remaining list, next part
SMILES	CDC25B-CDK2 inh	TAR Tat displ
CC(C)(C)NC(=O)CCCc1nc(-c2cccs2)no1	0.37	3.93
Cn1c(=O)c2c(nc(CN3CCOCC3)n2CC(=O)C(C)(C)C)n(C)c1=O	0.64	0.66
O=C(C1COc2cc(S(=O)(=O)NCc3ccc4c(c3)OCO4)ccc2O1)N1CCOCC1 (centres undefined)	·	0.12
O=S(=O)(NCCc1csc2nc(-c3ccccc3)nn12)c1cccs1	·	1.72
O=c1c2ccccc2nc2sc(Nc3c(F)cccc3F)nn12	·	1.28
CC(C)(C)c1ccc(C(=O)NCC(=O)OCc2cc(=O)n3nc(C4CC4)sc3n2)cc1	·	1.44
O=S(=O)(Nc1ccccn1)c1ccc(Cl)cc1	-0.24	·
CC1Sc2ccc(S(=O)(=O)CCC(=O)N3CCc4ccccc43)cc2NC1=O (centres undefined)	·	2.18
CCCc1cc2c(=O)c(-c3cc4ccccc4o3)coc2cc1OC	1.46	·
COc1cccc(NC(=O)NC2(C(F)(F)F)Oc3ccccc3O2)c1	-0.62	·
CC(C)Cc1nnc(NC(=O)c2cc(=O)c3cc(Cl)ccc3o2)s1	-1.01	1.57
O=C(O)C1CCN(c2ncnc3sc4c(c23)CCC4)CC1	·	-0.11
O=S(=O)(Nc1ccc(S(=O)(=O)Nc2cc(F)ccc2F)cc1)c1ccc(C(F)(F)F)cc1	0.75	·
Cc1cc(C(=O)CN2CCC(C)CC2)c(C)n1-c1ccc(F)cc1	·	0.59
Cn1c(COc2ccccc2Cl)nnc1SCc1cc(=O)c2ccccc2[nH]1	·	0.28

Assay outcomes deposited in PubChem BioAssay by Center for Chemical Genomics, University of Michigan.
